From PubChem BioAssay
RVFV N-RNA FP: blocks Rift Valley Fever Virus nucleoprotein binding to RNA. P21700. RVFV N-RNA binding, fluorescence polarization; hits give low values. % bound, % (concentration not given with the values). hit rate 0.1% among 20,000;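 active = between 0 and 58% in either replicate with normal brightness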;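 note: 100 nL library stock added to about 12 µL; 100% = protein and probe without compound and 0% = probe alone; numbers are from one replicate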
Target sequence (P21700 whole entry, looked up): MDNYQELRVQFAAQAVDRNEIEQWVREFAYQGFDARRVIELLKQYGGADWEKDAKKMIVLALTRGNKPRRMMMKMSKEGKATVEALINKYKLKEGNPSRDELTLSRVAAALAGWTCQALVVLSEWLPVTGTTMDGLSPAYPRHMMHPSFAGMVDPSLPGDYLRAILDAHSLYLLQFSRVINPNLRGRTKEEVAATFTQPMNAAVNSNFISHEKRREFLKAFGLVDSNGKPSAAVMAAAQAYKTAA
Starred values were filed as active, the others as inactive; & = joins results of further samples. A portion of the library; rates above refer to the full screens.

SMILES | RVFV N-RNA FP
O=C(NCCCn1cccn1)C1CCC1 | 101.5
COc1ccc(NC(=O)c2ccccc2NS(C)(=O)=O)cc1Cl | 94.4
CS(=O)(=O)c1cccc(CNc2nc(Nc3ccc4c(c3)CCC(=O)N4)ncc2C(F)(F)F)c1 | 96.3
Cc1cnc(NCCc2ccccc2)s1 | 92.1
C/C=C/c1ccc(OC)cc1 | 101.1
COC(=O)c1scc(C)c1NC(=O)CC1NCCNC1=O (stereo not drawn) | 92.6
CN(C)C(=O)NC1c2ccccc2-c2ccccc21 | 92.1
O=c1[nH]c2ccccc2c(O)c1Br | 101.7
Cc1nnc2n(c1=O)N=C(c1ccccc1)CS2 | 94.1
CCOC(=O)C1CCN(C/C=C/c2ccccc2)CC1 | 91.5
CN(C(=O)Nc1ccccc1)n1cnc2ccsc2c1=O | 99.4
O=C(NCc1ccccc1)N1CCN(c2ccccc2)CC1 | 93.0
CN(C)CC(=O)c1ccc(-c2ccccc2)cc1 | 87.3
Cc1cc(=O)[nH]c2ccc(S(N)(=O)=O)cc12 | 103.5
CC1(C)COC(CC(=O)c2cccs2)=N1 | 102.4
CCN(C(=O)/C=C/c1ccccc1)c1ccccc1 | 94.6
CCN(CC)C(=O)NCc1ccccn1 | 94.4
Cc1cc(=O)oc2cc(OC(C)C(=O)NCC3CCCO3)ccc12 (stereo not drawn) | 94.3
CCOc1ccc(NC(=O)OC(C)(C)C)cc1 | 98.0
COc1ccc(Sc2ccc(OC)cc2C(=O)O)c(C(=O)O)c1 | 93.7
CS(=O)(=O)N(CC(N)=O)Cc1ccc(F)cc1 | 99.8
COc1ccc(C(=O)c2c(C)oc3ccc(OC)cc23)cc1 | 94.3
CCc1ccccc1N/C=C1/CCCCC1=O | 95.3
Nc1nc2[nH]c(=O)[nH]c(=O)c2s1 | 79.0
CCN1CCN(C(=O)c2ccc(CNS(=O)(=O)c3cccc(OC)c3)cc2)CC1 | 96.9
CCc1cccc(C)c1NC(=O)N(C)C1CCCCC1 | 98.1
CN1CCCCC1CCN1c2ccccc2Sc2ccc(S(C)=O)cc21 (stereo not drawn) | 97.2&97.2
c1ccc(CN2CCN(c3ncnc4c3cnn4-c3ccccc3)CC2)cc1 | 96.3
CC(C)NC(=S)NCc1cnn(C)c1 | 95.6
Cc1ccc(N=Cc2ccco2)c(C)c1 | 105.2
N#Cc1c(N)nc2c(c1-c1ccccc1Cl)CCC2 | 90.9
O=c1oc2ccccc2n1CCc1nc(-c2ccc(C(F)(F)F)cc2)no1 | 95.5
COc1ccc(CN2CCCCC2CO)cc1Br (stereo not drawn) | 92.2
N#CS/C=C/C(=O)c1ccccc1 | 94.3
CCOc1ccc(NC(=S)NCCCO)cc1 | 89.6
O=C(O)CCSc1nnc(-c2ccncc2)n1-c1ccccc1 | 103.9
CCOC(=O)Cn1c(=NC(=O)CN2C(=O)CCC2=O)sc2cc(S(N)(=O)=O)ccc21 | 97.8
N#Cc1nc(-c2ccccc2F)oc1NC1CC1 | 96.3
N#CC(=Cc1ccc(O)c(O)c1)C(N)=S | 96.1
COc1cccc(/C=N/NC(=O)Cc2ccccc2)c1 | 101.7
S=C(NCc1ccccc1)NCC(c1cccnc1)N1CCOCC1 (stereo not drawn) | 94.5
CN1CC(=O)N/C1=N\C(=O)Nc1cccc(Cl)c1 | 89.9
Nc1ccn([C@H]2CC[C@@H](CO)O2)c(=O)n1 | 99.3&92.4&97.5
Clc1cc2nsnc2cc1Cl | 95.0
C=CCc1cccc(/C=C(/C#N)C(N)=O)c1O | 93.6

The final two records of the section above open the next one.
SMILES | RVFV N-RNA FP
Clc1cc2nsnc2cc1Cl | 95.0
C=CCc1cccc(/C=C(/C#N)C(N)=O)c1O | 93.6
CNC(C)c1ccc(OC)c(OC)c1 (stereo not drawn) | 91.0
N/C(=N/c1nc(CSc2ccc(Cl)cc2)cc(=O)[nH]1)Nc1ccc(F)cc1 | 92.1
O=C(NCC(O)c1ccccc1)Nc1ccc(F)cc1 (stereo not drawn) | 92.1
CC1(C)CC(C(N)=O)C(C)(C)N1 (stereo not drawn) | 91.8
CCOC(=O)Cc1nc(-c2ccncc2)n[nH]1 | 100.3
O=C(O)Cc1ccc2c(c1)OCO2 | 91.1
CN(C)C(=O)c1nn(-c2ccc(Cl)cc2)c(=O)c2ccccc12 | 106.8
CCCC(=O)Nc1nc2ccc(N)cc2s1 | 89.6
CCN=C1S/C(=C2\C(=O)N(C)c3ccccc32)C(=O)N1CC | 100.9
O=C1NC(=O)/C(=C/c2ccc3c(c2)OCO3)S1 | 100.9
CCOC(=O)c1sc2nc(NC(=O)C3CC3)sc2c1C | 96.5
Nc1nc(CSc2nnc(-c3cccc(Br)c3)n2C2CCCCC2)cs1 | 99.3
CCNc1oc(-c2ccc(F)cc2)nc1S(=O)(=O)c1ccc(Cl)cc1 | 93.3
CN(C)N1C(=O)CC(Nc2ccc(F)cc2)C1=O (stereo not drawn) | 87.6
O=C(CSc1n[nH]c(=O)n1Cc1ccco1)c1ccc2c(c1)OCCO2 | 101.0
COC(=O)c1ccccc1NC(=O)/C(C#N)=C/c1ccc2noc(-c3ccccc3)c2c1 | 103.1
CCn1c(SCCC(=O)Nc2ccccc2)nnc1-c1ccc(OC)cc1 | 94.1
CCN1C(=O)CC(OC(C)=O)C1=O (stereo not drawn) | 92.2
Cc1ccc(S(=O)(=O)N(CC(O)CN2CCCCC2)c2ccccc2)cc1 (stereo not drawn) | 94.7
CCOC(=O)c1cnc(SCC(=O)N2c3ccccc3SC3C=CC=CC32)nc1N (stereo not drawn) | 95.2
O=c1c2ccccc2c(-c2ccccc2)nn1CN1CCCC1 | 88.9
CCOc1cccc(CNc2ccc(NC(=O)CC)cc2)c1O | 89.2
COC(=O)c1c(C(=O)OC)c2n(c1C)CCS2 | 87.9
Cc1cccc(NC(=S)NCc2ccco2)c1 | 85.7
C=CCOc1nc(-c2ccccc2)cc(-c2ccc(OC)cc2)n1 | 92.5
COC(C(=O)Nc1ccccc1SC)c1ccccc1 (stereo not drawn) | 97.6
COc1ccc(C(C#N)C2(C)OCCO2)cc1OC (stereo not drawn) | 106.8
CN(C(=O)C12CCC(C)(C(=O)O1)C2(C)C)c1ccccc1 (stereo not drawn) | 97.1
NCCCC(N)(C(=O)O)C(F)F (stereo not drawn) | 98.4
CC(C)(C)c1cc(C(=O)NC2CC2)n(Cc2ccc(F)cc2)n1 | 96.8
N#CSCOC(=O)Oc1ccc2ccccc2c1 | 88.7
Cc1ccccc1CSCC(=O)Nc1ccc(O)cc1C(=O)O | 98.0
Cc1nnsc1C(=O)NCc1ccc(F)cc1 | 98.5
O=S(=O)(Cc1noc(-c2ccno2)n1)Cc1ccco1 | 100.4
Cc1cccc(CN2CCCC2CO)c1 (stereo not drawn) | 91.7
CCOC(=O)C1=NN(c2ccccc2)C(=O)/C1=C\c1ccc(N(C)C)cc1 | 87.5
CC(=O)N1CCN(C(=S)c2ccc(-c3cccc(Cl)c3Cl)o2)CC1 | 98.2
O=C(Nc1ccc(N2CCOCC2)cc1)OCc1ccccc1 | 98.1
O=C(NCCCSc1ccccn1)Nc1ncccn1 | 93.1
CCCc1nc(C(C)(C)O)c(C(=O)OCc2oc(=O)oc2C)n1Cc1ccc(-c2ccccc2-c2nn[nH]n2)cc1 | 99.2
O=S(=O)(Cc1ccc(Br)cc1F)c1cccs1 | 86.0
COC(=O)c1cc(S(=O)(=O)Nc2ccsc2C(=O)OC)oc1C | 98.0
Cc1nnc(SCC(=O)NCc2ccc(F)cc2)n(N)c1=O | 104.1
CCn1c(SCC(=O)NC2CCCCC2)nnc1C(CO)NC(=O)c1ccccc1 (stereo not drawn) | 94.7
N#Cc1c(S/C=C(\O)c2cc3ccccc3o2)nc2c(c1C(F)(F)F)CCCC2 | 95.1
CCc1c(C)[nH]c(C)c1C(=O)OC | 101.8
C=CCc1ccccc1Oc1cc(F)nc(N)n1 | 94.3
CC(c1ccccc1)n1cnc2c(oc3ccccc32)c1=O (stereo not drawn) | 98.1
O=C(O)CCN1CCc2ccccc2C1c1ccncc1 (stereo not drawn) | 100.0
C=CCSc1nnc(NC(=O)NC2CCCCC2)s1 | 96.7
Oc1ccccc1O | 86.9
Cc1cccc(C2N=C(c3cnccn3)NN2)c1 (stereo not drawn) | 93.3
OC1CCN(Cc2ccc[nH]2)CC1 | 95.0
O=C(O)COCC(=O)Nc1ccc(N2CCOCC2)nc1N1CCOCC1 | 95.4
O=S(=O)(NC1CC1)c1ccc2ccccc2c1 | 96.2
CSc1ccccc1N1CCN(CCCCCC(=O)NC2CCCc3ccccc32)CC1 (stereo not drawn) | 93.6
O=C(Nc1ccc2c(c1)OCO2)Nc1cnn(Cc2ccc(Br)cc2)c1 | 91.0
CCS(=O)(=O)CCSc1nc2ccccc2o1 | 104.2
C=CCNC(=O)C1CCCN(S(=O)(=O)c2cc(Cl)ccc2OC)C1 (stereo not drawn) | 99.1
CCN1CCN(c2nnc(-c3cccs3)c3ccccc23)CC1 | 92.8

Later entries:
SMILES | RVFV N-RNA FP
Nn1c(Nc2ccc(Cl)cc2)nncc1=O | 102.8
CCOC(=O)c1cnn2c1nc(N1CCOCC1)c1ccccc12 | 96.3
Cc1ccc(C(C)C)c(OCC(=O)NC2CCN(C)CC2)c1 | 104.5
CCc1ccc(NC(=S)NN(C)C)cc1 | 98.2
CN(C)CCN(Cc1cccs1)c1ccccn1 | 91.4
CNC(=S)NCCN1CCOCC1 | 92.3
O=C(Cn1cnc2c(cnn2CCO)c1=O)N1CCOCC1 | 93.1
Cc1ccc(S(=O)(=O)/N=C/c2ccco2)cc1 | 95.8
Cn1c(SCCC(=O)Nc2ccccc2)nnc1-c1cc2ccccc2o1 | 101.3
Cc1nc(N)sc1-c1ccnc(Nc2cccc([N+](=O)[O-])c2)n1 | 103.9
CCOC(=O)c1cnc2cc(C(F)(F)F)ccc2c1Nc1c(C)n(C)n(-c2ccccc2)c1=O | 98.6
O=C(NCc1ccc(F)cc1)NC1CC(=O)N(c2ccccc2)C1 (stereo not drawn) | 90.7
CCC(=O)Nc1ccccc1Cl | 91.4
O=C(CCS(=O)(=O)Cc1ccccc1)n1nnc2ccccc21 | 85.3
C[C@]12CC[C@H]3[C@@H](CCC4=CC(=O)CC[C@@H]43)[C@@H]1CC[C@@H]2O | 91.7
Cc1ccccc1CN1CCC(CN)CC1 | 99.2
O=C(c1cccc2ccccc12)c1nc2c(n1O)CCCC2 | 96.9
NC(=O)OCC(COC(N)=O)c1ccccc1 | 85.9&91.1
CN(C)C(=O)Oc1ccc2cc(-c3ccccc3)c(=O)oc2c1 | 94.0
Cc1cc2nc[nH]c2cc1C | 90.1
COc1cc(OC)c(C2=NOC(C(=O)NCCCN3CCOCC3)C2)cc1Cl (stereo not drawn) | 93.5
COc1cccc(C(=O)Nc2ccc(N3CCCC3)cc2)c1 | 96.1
NC(N)=NC(N)=Nc1ccc(Cl)cc1Cl | 95.0
CCN(CC)CCN1C(=O)C(=O)/C(=C(/O)c2ccc3c(c2)OCCO3)C1c1cccc(Cl)c1 (stereo not drawn) | 98.9
C[C@]12CC[C@@H]3c4ccc(O)cc4CC[C@H]3[C@@H]1CCC2=O | 100.5&93.2
C=CCn1c(CNC=O)nc2ccccc21 | 98.1
O=C1NC(=O)/C(=C/C(=O)N2CCCCC2)S1 | 97.8
COC(=O)CCC(=O)c1ccc(Cc2ccc(C(=O)CCC(=O)OC)s2)s1 | 93.0
COC(=O)/C=C1\SC(=Nc2ccc(Cl)c(Cl)c2)NC1=O | 95.4
Cn1c(CCCNC=O)nc2ccccc21 | 93.2
CCCC12CN3CC(CCC)(CN(C1)C(=O)c1ccccc1C3=O)C2=O | 93.7
CCCc1nc(C)c2c(=O)[nH]c(-c3cc(S(=O)(=O)N4CCN(CC)CC4)ccc3OCC)nn12 | 92.3&97.9
Cc1ccc(C)c(S(=O)(=O)Nc2ccc(C(=O)N3CC(C)OC(C)C3)cc2)c1 (stereo not drawn) | 89.5
COc1ccc(F)cc1S(=O)(=O)N1CCN(c2c(C)cc(C)cc2C)CC1 | 96.9
O=c1[nH]c(=S)[nH]c(O)c1C=NC12CC3CC(CC(C3)C1)C2 | 91.6
Cc1cccc(C)c1NC(=S)NCCC(=O)O | 99.7
O=C1CC(c2nc(-c3ccccc3)no2)CN1c1ccccc1 (stereo not drawn) | 96.8
CC(=O)Oc1cc(C(C)C)c(OCCN(C)C)cc1C | 98.5
Cn1c(COc2ccccc2)nnc1SCC(=O)N1CCc2ccccc21 | 94.2
O=C(/C=C/c1cccc(N2C(=O)C3C4C=CC(C4)C3C2=O)c1)NCc1ccco1 (stereo not drawn) | 98.0

Of the compounds above, these contain fluorine:
SMILES | RVFV N-RNA FP
CS(=O)(=O)c1cccc(CNc2nc(Nc3ccc4c(c3)CCC(=O)N4)ncc2C(F)(F)F)c1 | 96.3
CS(=O)(=O)N(CC(N)=O)Cc1ccc(F)cc1 | 99.8
O=c1oc2ccccc2n1CCc1nc(-c2ccc(C(F)(F)F)cc2)no1 | 95.5
N#Cc1nc(-c2ccccc2F)oc1NC1CC1 | 96.3
N/C(=N/c1nc(CSc2ccc(Cl)cc2)cc(=O)[nH]1)Nc1ccc(F)cc1 | 92.1
O=C(NCC(O)c1ccccc1)Nc1ccc(F)cc1 (stereo not drawn) | 92.1
CCNc1oc(-c2ccc(F)cc2)nc1S(=O)(=O)c1ccc(Cl)cc1 | 93.3
CN(C)N1C(=O)CC(Nc2ccc(F)cc2)C1=O (stereo not drawn) | 87.6
NCCCC(N)(C(=O)O)C(F)F (stereo not drawn) | 98.4
CC(C)(C)c1cc(C(=O)NC2CC2)n(Cc2ccc(F)cc2)n1 | 96.8
Cc1nnsc1C(=O)NCc1ccc(F)cc1 | 98.5
O=S(=O)(Cc1ccc(Br)cc1F)c1cccs1 | 86.0
Cc1nnc(SCC(=O)NCc2ccc(F)cc2)n(N)c1=O | 104.1
N#Cc1c(S/C=C(\O)c2cc3ccccc3o2)nc2c(c1C(F)(F)F)CCCC2 | 95.1
C=CCc1ccccc1Oc1cc(F)nc(N)n1 | 94.3
CCOC(=O)c1cnc2cc(C(F)(F)F)ccc2c1Nc1c(C)n(C)n(-c2ccccc2)c1=O | 98.6
O=C(NCc1ccc(F)cc1)NC1CC(=O)N(c2ccccc2)C1 (stereo not drawn) | 90.7
COc1ccc(F)cc1S(=O)(=O)N1CCN(c2c(C)cc(C)cc2C)CC1 | 96.9
